Source: PubChem (several laboratories)
HNF4A DNA FP – change in binding of human HNF4 alpha to DNA; P41235; HNF4a-FITC DNA binding, fluorescence polarization, 1 h; activity change, % at 10 µM; 0.3% of 360,000 active; in the data active means activity change above about 30%, passing the limit was not always enough;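 further: controls were the assay level and a saturating level of protein; the project sought stronger binding though the title names inhibitors; some compounds called inactive have numbers as strong as hits; positive values seem to mean higher polarization but the record does not say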
Target sequence (P41235 whole entry, looked up): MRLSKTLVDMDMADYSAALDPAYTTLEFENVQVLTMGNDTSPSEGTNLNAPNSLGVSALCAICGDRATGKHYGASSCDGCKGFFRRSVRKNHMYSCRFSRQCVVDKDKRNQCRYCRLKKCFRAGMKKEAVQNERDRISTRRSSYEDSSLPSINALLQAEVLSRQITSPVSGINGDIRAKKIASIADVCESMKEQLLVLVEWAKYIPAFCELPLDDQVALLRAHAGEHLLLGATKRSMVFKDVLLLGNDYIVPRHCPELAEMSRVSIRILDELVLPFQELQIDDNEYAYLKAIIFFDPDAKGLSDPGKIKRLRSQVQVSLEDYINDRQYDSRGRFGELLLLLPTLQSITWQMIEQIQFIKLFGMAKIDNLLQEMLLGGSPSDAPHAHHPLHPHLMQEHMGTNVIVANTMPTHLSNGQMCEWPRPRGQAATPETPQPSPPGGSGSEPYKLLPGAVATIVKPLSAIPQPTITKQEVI
ALR H2O2 inh – inhibitors of human sulfhydryl oxidase ALR; P55789; purified ALR, DTT oxidation, H2O2 HRP-luminol luminescence; inhibition, % (test concentration not listed); 3.8% of 290,000 active; AID 485317;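 active means mean and each replicate at 75% or more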;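 further: stock transfer was 7.5 nL into about 7.5 µL; 0% = neutral wells and 100% = wells with inactivated enzyme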
Target sequence (P55789 whole entry, looked up): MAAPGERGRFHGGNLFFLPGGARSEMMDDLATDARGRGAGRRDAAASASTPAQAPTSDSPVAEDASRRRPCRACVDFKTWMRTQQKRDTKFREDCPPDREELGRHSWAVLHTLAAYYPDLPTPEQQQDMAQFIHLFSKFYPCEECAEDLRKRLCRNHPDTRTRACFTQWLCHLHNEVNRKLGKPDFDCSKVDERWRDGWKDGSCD
LANA-H2A inh – blocks KSHV LANA binding to histone H2A/H2B; Q9QR71; cell-free LANA-H2A/H2B peptide, fluorescence polarization; inhibition, % (test concentration not listed); 0.6% of 320,000 active; in the data active means inhibition mostly above about 10%, no sharp cut-off; inactive means mostly below about 6.7%;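 further: stock transfer was 7.5 nL into about 10 µL; 0% = median of vehicle wells and 100% = median of positive control wells; one replicate is shown; the record names a cut of 25% in any replicate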
B2AR ag – agonists of human beta-2 adrenergic receptor inducing internalization | P07550 | Am2.2-beta2AR cells, FAP receptor internalization, flow cytometry; reference of the scale not given here | response, % (concentration not given with the values) | 0.43% of 340,000 active | AID 504454;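 active means response above a set limit, near 3 SD of response in nonfluorescent compounds, cut at about 42% in these data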;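 further: stock transfer was 100 nL into about 11 µL; a reference agonist was the positive control; negative values mostly stem from fluorescent compounds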
E coli growth – blocks Escherichia coli growth; OD600, 23 h; active compounds read low; OD600 absorbance (test concentration not listed); 0.21% of 330,000 active;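 active means OD600 absorbance below the run mean of sample wells minus 3.6 SD, in any replicate, cut at about 0.56 in these data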;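 further: stock transfer was 300 nL into about 60 µL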
FGF22 binding – FGF22 (human) thermal shift binding; recombinant FGF22 thermal shift, SYPRO orange fluorescence; percent of sucrose octasulfate shift, DMSO zero; Q9HCT0; calls only at 9.99 µM; 1.5% of 340,000 active; AID 651658;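 active means melting point raised past a set limit in the mean and every replicate; three in four hits are not shown here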
Target sequence (Q9HCT0 whole entry, looked up): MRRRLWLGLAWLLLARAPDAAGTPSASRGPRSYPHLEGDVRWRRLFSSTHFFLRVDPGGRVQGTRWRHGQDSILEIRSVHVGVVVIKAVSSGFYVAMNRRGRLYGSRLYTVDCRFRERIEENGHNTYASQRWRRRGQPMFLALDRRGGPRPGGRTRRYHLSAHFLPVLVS
UCH37 inh – human UCH37 deubiquitinating enzyme inhibition. Q9Y5K5. purified proteasome/UCH37, Ub-AMC cleavage fluorescence. inhibition, % (test concentration not listed). 0.33% of 330,000 active. AID 588478;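 active means mean of two replicates above 20%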;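 further: 0% = compound-free wells with enzyme and 100% = wells lacking proteasome; stock transfer was 100 nL into about 20 µL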
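Assay system: Proteasome-bound UCH37. Buffer or medium: pH 7.4 Tris-HCl (50 mM) with ovalbumin, ATP-MgCl2, DTT. Incubation: 30 min preincubation with enzyme, 25 min cleavage at room temperature. Measured by: fluorescence, ex 355 nm, em 460 nm. Read-out basis: percent inhibition. Control set: wells without proteasome as full block, compound-free enzyme plus substrate as uninhibited.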
Starred values were filed as active, the others as inactive; i = inactive; x = no result given. An excerpt; rates above refer to the full screens.

SMILES	HNF4A DNA FP	ALR H2O2 inh	LANA-H2A inh	B2AR ag	E coli growth	FGF22 binding	UCH37 inh
COc1ccc(C(CC(=O)O)c2cc(OC)c(OC)c(OC)c2)cc1OC (stereo unspecified)	-0.6	x	x	-8	x	i	x
O=c1c2ccccc2cnn1Cc1ccc(Br)cc1F	1.6	-1	-2.2	-8	0.69	i	4.8
COc1cc(/C=C(\NC(=O)c2ccccc2)C(=O)NC(C(=O)O)c2ccccc2)cc(OC)c1OC (stereo unspecified)	2.1	-1	-9.5	3	0.69	i	3.2
Clc1ccccc1C1=CC(c2ccco2)n2nnnc2N1 (stereo unspecified)	5.4	4	-2.7	-3	0.64	i	-1.6
Cc1nc(SCc2ccccc2)c(C(F)(F)F)c(=O)[nH]1	2.5	-3	1.3	-1	0.77	x	0.4
Cc1ccc(S(=O)(=O)Nc2c(C)n(C)n(-c3ccccc3)c2=O)c(C)c1	2.7	-7	0.7	-5	0.66	i	-0.9
CCOCCOc1cccc(C(=O)NC(c2ccccc2)C(C)C)c1 (stereo unspecified)	0.2	-5	3.8	-6	0.68	i	2.0
CCc1ccc(NC(=O)c2cnccn2)cc1	1.1	-7	1.6	3	0.7	i	-0.5
CN(c1ccccc1)c1nc(N)c([N+](=O)[O-])c(NCCO)n1	2.5	-3	4.3	-5	0.66	i	16
COc1ccc(CNC(=O)C[C@H]2C(=O)N(Cc3ccccc3)C[C@@H]2Cc2ccccc2)cc1	0.3	0	6.2	-1	x	i	3.8
COC(CNC(=O)c1ccc2c(c1)ncn2-c1cc(C)cc(C)c1)OC	1.1	11	-1.7	-6	0.72	i	4.3
CC(C)(CN1CCNCC1)NS(=O)(=O)c1ccc(Cl)cc1	-3.9	-5	-3.6	14	0.66	i	1.5
COc1cccc(OC2OC3COC(C)(C)OC3C(O)C2NC(C)=O)c1 (stereo unspecified)	-2.3	-7	-12	-3	0.67	i	-0.2
CCCC(=O)Nc1ccc2c(c1)nc(CN1CCN(C(C)=O)CC1)n2C	-0.8	x	x	-17	0.77	x	4.1
CCOC(=O)/C(=C\c1ccccc1)NC(=O)c1ccccc1	-1.7	x	9.3	5	0.66	i	1.0
CC(C)C(C)NC(=O)CN1C(=O)NC2(CCCCCC2)C1=O (stereo unspecified)	-0.5	3	3.4	0	0.69	i	2.8
O=C1N(c2ccccc2)C2CS(=O)(=O)CC2N1c1ccc(Br)cc1 (stereo unspecified)	-3.1	-7	0.2	3	0.68	x	-3.8
COc1ccc(/C=N/NC(=O)c2ccccc2O)cc1CSc1ccccn1	3.2	25	2.5	-2	x	x	x
CCOC(=O)c1ccc(NC(=S)NCCC2=CCCCC2)cc1	1.0	-3	-0.1	-5	0.65	x	4.0
COc1ccc(C(=O)NCCCNC(=O)c2cnccn2)cc1Br	0.8	-2	3.2	-4	0.71	i	0.4
COc1cc(CC(=O)Nc2ccc(N3CCOCC3)cc2)cc(OC)c1OC	-0.1	15	-1.7	-2	0.72	i	0.8
CCOC(=O)c1cccc(NC(=O)Cn2cnc3c2c(=O)n(C)c(=O)n3C)c1	-3.9	-6	3.2	-3	0.67	x	2.7
COc1cccc(C2=NN(C(=O)CCCC(=O)O)C(c3cccs3)C2)c1 (stereo unspecified)	-3.2	-3	-5.7	1	0.72	i	-1.0
CCOc1ccc(/C=C/C(=O)c2ccccc2)cc1	2.6	22	-0.5	22	0.68	i	2.3
CCC(CC)C(=O)Nc1nnc(S(=O)(=O)N2CCCCCC2)s1	1.4	-6	-6.3	2	0.75	i	3.2
CC1CCCC(C)N1/N=C/c1ccccc1F (stereo unspecified)	3.0	-3	2.7	-6	x	i	x
O=C(c1cc(-c2ccc(F)cc2)nc2ccccc12)N1CCC1	-0.4	6	6.9	-2	0.69	i	-2.2
COC(=O)c1cc(=O)n(Cc2ccc(OC)c(OC)c2)c(=Nc2ccc(F)cc2)s1	1.4	-3	6.0	72*	0.77	i	6.2
CCC(=O)N1CCc2cc(S(=O)(=O)N3CCc4ccccc43)ccc21	-1.8	-3	8.2	20	x	x	x
COc1cc(C(C)=O)ccc1OCC(O)CN1CCN(c2ccccc2)CC1 (stereo unspecified)	-5.3	x	1.2	-5	0.7	i	2.2
O=C(CNC(=O)c1ccco1)OCN1C(=O)c2ccccc2C1=O	-1.9	-9	11	7	0.73	x	1.6
OCC(CO)(CO)NC(=S)Nc1cc(Cl)cc(Cl)c1	2.3	31	7.5	-1	0.65	i	6.1
Nc1cc(C(=O)N/N=C/c2cccc([N+](=O)[O-])c2)n[nH]c1=O	-2.9	-4	-1.5	1	x	i	x
Cc1cc(C)c2c(-n3cccc3)c(C(=O)NNS(=O)(=O)c3ccccc3)sc2n1	-2.6	21	-2.1	-7	0.71	x	1.3
COc1cc2cc(CN(CCc3ccccc3C)C(=S)NCCCN(C)C)c(=O)[nH]c2cc1OC	7.1	-24	-9.1	14	0.7	x	-102
CCN(CC)CCCNC(=O)CNC(=O)c1nn(-c2ccc(OC)cc2)c(=O)c2ccccc12	3.1	-6	2.4	-8	0.71	i	0.8

Looked up above.
For E coli growth, CCN(CC)CCCNC(=O)CNC(=O)c1nn(-c2ccc(OC)cc2)c(=O)c2ccccc12 is entered as 0.71
For HNF4A DNA FP, CC1CCCC(C)N1/N=C/c1ccccc1F (stereo unspecified) is entered as 3.0
For LANA-H2A inh, O=C(c1cc(-c2ccc(F)cc2)nc2ccccc12)N1CCC1 is entered as 6.9
For E coli growth, COc1cc2cc(CN(CCc3ccccc3C)C(=S)NCCCN(C)C)c(=O)[nH]c2cc1OC is entered as 0.7
For LANA-H2A inh, Cc1cc(C)c2c(-n3cccc3)c(C(=O)NNS(=O)(=O)c3ccccc3)sc2n1 is entered as -2.1
For HNF4A DNA FP, OCC(CO)(CO)NC(=S)Nc1cc(Cl)cc(Cl)c1 is entered as 2.3

The main list resumes, starting 3 compounds before the break.
SMILES	HNF4A DNA FP	ALR H2O2 inh	LANA-H2A inh	B2AR ag	E coli growth	FGF22 binding	UCH37 inh
Cc1cc(C)c2c(-n3cccc3)c(C(=O)NNS(=O)(=O)c3ccccc3)sc2n1	-2.6	21	-2.1	-7	0.71	x	1.3
COc1cc2cc(CN(CCc3ccccc3C)C(=S)NCCCN(C)C)c(=O)[nH]c2cc1OC	7.1	-24	-9.1	14	0.7	x	-102
CCN(CC)CCCNC(=O)CNC(=O)c1nn(-c2ccc(OC)cc2)c(=O)c2ccccc12	3.1	-6	2.4	-8	0.71	i	0.8
Cc1cc([N+](=O)[O-])cc2c1NC(=O)C2(O)N1CCCC(C)C1 (stereo unspecified)	1.6	-5	-1.7	-1	0.65	i	8.7
CN(C)C(=O)/C(=C/c1ccc(-c2cccc([N+](=O)[O-])c2)o1)NC(=O)c1ccccc1	5.3	x	3.3	0	0.66	i	17
COc1ccccc1CC(=O)Nc1ccc2c(c1)CCC2	1.0	-10	-0.1	-3	0.71	x	1.1
O=C(O)/C=C/C(=O)N1CCN(C(=O)/C=C/C(=O)O)CC1	0.9	0	-1.3	8	0.68	i	-15
CC(C)CC(=O)Nc1ccccc1N1CCCC1	0.7	-5	-0.4	-1	0.71	i	1.5
CC1CCCN(C(=O)c2cc3c(-c4ccc(Cl)cc4)nn(C)c3s2)C1 (stereo unspecified)	0.7	-49	0.1	37	0.74	i	2.9
COc1ncccc1-c1nnn(-c2ccc(Cl)c(Cl)c2)n1	-5.5	-1	1.1	-11	0.72	i	3.4
CC(=O)N1CCN(c2ccc(NCc3cccc4ccccc34)cc2)CC1	6.1	99*	-1.3	7	x	i	x
Cc1ccc(NC(=S)NCc2cccnc2)cc1	1.9	43	-4.2	-4	0.67	x	-2.5
O=C(O)C1C2C=CC(C2)C1C(=O)NCCCN1CCOCC1 (stereo unspecified)	-2.7	1	-1.0	-1	0.74	x	0.8
CC(C)(C)n1ncc2c(=O)n(CC(=O)Nc3ccccc3)cnc21	1.3	2	0.1	0	0.7	x	4.0
CCCCN1C[C@H](Cc2ccccc2)[C@@H](CC(=O)NCc2ccc(OC)cc2)C1=O	-0.3	-6	-6.7	-1	x	i	1.6

Limited to LANA-H2A inh, FGF22 binding and UCH37 inh (2 entries from above):
| Compound | LANA-H2A inh | FGF22 binding | UCH37 inh |
| --- | --- | --- | --- |
| CC(C)(C)n1ncc2c(=O)n(CC(=O)Nc3ccccc3)cnc21 | 0.1 | x | 4.0 |
| CCCCN1C[C@H](Cc2ccccc2)[C@@H](CC(=O)NCc2ccc(OC)cc2)C1=O | -6.7 | i | 1.6 |

Next part.
SMILES	HNF4A DNA FP	ALR H2O2 inh	LANA-H2A inh	B2AR ag	E coli growth	FGF22 binding	UCH37 inh
O=C(O)CCc1ccc(-c2ccccc2)n1CC(=O)O	-3.0	x	-1.3	4	0.72	x	-3.0
CC(=O)c1cccc(Nc2nc(-c3ccccc3)cs2)c1	-2.0	-7	-0.3	14	0.69	i	1.8
CC1CN(C(=O)c2ccc(COc3ccccc3Cl)o2)CC(C)O1 (stereo unspecified)	3.4	x	-2.8	-1	0.67	i	2.7
Cn1nc(C(=O)NCC(=O)Nc2ccc(F)c(F)c2F)c2ccccc2c1=O	-0.4	0	5.4	-2	0.71	i	-1.5
Nc1ccc(C(=O)Nc2nccs2)cc1	-0.8	x	7.7	-3	0.69	i	5.3
CC(=O)Nc1nonc1-c1nc2ccccc2n1N(C(C)=O)C(C)=O	-6.0	1	3.0	29	0.67	x	3.9
Cc1cc(Cl)c(S(=O)(=O)Nc2cc(S(=O)(=O)N3CCOCC3)ccc2F)cc1OCC(N)=O	-0.4	x	3.4	6	0.66	i	3.2
Cc1cc(C)n(C(=O)c2ccc(C)c(F)c2F)n1	-3.0	-15	-1.5	0	0.65	x	0.0
O=C(NCCCN1CCCC1)c1ccc2c(c1)N(Cc1cccc(Cl)c1)C(=O)c1ccccc1S2=O (stereo unspecified)	-3.1	-15	-0.1	26	0.68	i	8.0
CCN(CC)CCN(C(=O)c1ccc(N2C(=O)CCC2=O)cc1)c1nc2cc3c(cc2s1)OCO3	x	29	3.4	x	0.7	i	4.2
O=C(Nc1ccccc1)Nc1ccccc1C(=O)NCCCN1CCOCC1	-5.9	0	-0.1	-10	0.67	i	4.9
Cc1c(C(=O)NCc2ccco2)oc2ccc(S(=O)(=O)N3CCC4(CC3)OCCO4)cc12	3.1	-1	-0.3	5	0.73	x	5.2
Cc1[nH]c(=O)[nH]c(=O)c1S(=O)(=O)N1CCCC(C(=O)NCc2ccccc2Cl)C1 (stereo unspecified)	-3.5	-3	3.3	7	0.73	x	0.2
O=[N+]([O-])c1ccc(N2CCN(S(=O)(=O)c3ccc(Cl)cc3)CC2)cc1NCc1cccnc1	0.6	-2	1.0	4	0.72	x	5.3
O=C(Nc1ccc(C(=O)N2CCCCC2)cc1)Nc1cccc(Cl)c1	-0.3	-8	5.8	5	0.63	i	3.6
CCOc1ncccc1C(=O)OCC(=O)NCc1ccc2c(c1)OCO2	3.0	1	-1.2	5	0.68	x	2.3
CN1C(=O)N(C)C2(CC1(C)C)CC(C)(C)N(C)C(=O)N2C	-3.2	-2	2.5	-7	0.72	x	2.7
O=C(COC(=O)c1ccc2ncsc2c1)NCc1ccc(F)cc1	6.3	-2	-0.2	-8	0.65	i	1.7
CC(=O)NC(CCCN1C(=O)c2ccccc2C1=O)c1nnn(C)n1 (stereo unspecified)	1.9	-9	3.2	-8	0.7	x	2.2
COc1ccc(C2Nc3ccccc3C(=O)N2NS(=O)(=O)c2ccc(C)cc2)c(OC)c1 (stereo unspecified)	2.1	-3	0.4	3	0.64	i	-214
COc1cccc(-c2cc(C(=O)Nc3cccc(O)c3)no2)c1	1.6	-16	2.8	2	0.71	x	5.0
CCCC(C)c1nnc(NC(=O)C2CCCO2)s1 (stereo unspecified)	-0.2	-7	-0.9	3	0.69	i	-1.6
O=C(NCCc1ccccc1)C1CCN(S(=O)(=O)N2CCCCC2)CC1	-2.2	-2	5.4	-5	0.71	i	2.4
Cc1ccc(CC(=O)N2CCN(c3ccc([N+](=O)[O-])cc3)CC2)cc1	3.5	50	1.2	8	0.68	i	8.4
